# ClpP mod = qHTS Assay for Activators of ClpP | ATP-dependent Clp protease proteolytic subunit (Bacillus subtilis (strain 168)), P80244 | purified B. subtilis ClpP, FRET peptide cleavage, 20 min | Potency, µM (series often up to 57.5 µM), for inactives: at the top dose activity change, negative = active | hit rate 1.9% among 340,000; active = well fitted falling curve with a large enough effect; inconclusive = small, poorly fitted or top-dose-only effect; inactive = no such curve, though single readings can be large or run the other way; note: the source files actives as falling curves though it sought activators and does not explain the sign; nearly all actives have a fitted effect of over 65% in size; many hits overshoot -100%
# Target sequence (P80244 whole entry, looked up): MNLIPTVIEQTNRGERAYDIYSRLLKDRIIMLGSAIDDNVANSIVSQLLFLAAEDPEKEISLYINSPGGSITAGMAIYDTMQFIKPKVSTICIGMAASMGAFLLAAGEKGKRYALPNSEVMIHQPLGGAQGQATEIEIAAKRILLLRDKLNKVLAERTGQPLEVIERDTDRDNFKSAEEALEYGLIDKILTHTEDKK
#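 FRET quenching reversal measured ClpP activation: 10 microg/mL B. subtilis ClpP at pH 8 with the FRET-FV decapeptide, read at 430 nm after 320 nm excitation. The 20-min minus 0-min signal was scaled between DMSO/no-enzyme wells and ADEP (5.8 microM final).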
# PINK1 expr mod = A Quantitative High throughput Screen to Identify Chemical Modulators of PINK1 Expression | PINK1 immunofluorescence, high-content cytometry, 24 h | Potency, µM (titrated, usually from 76.6 µM), for inactives: top-dose activation (PINK1 increase), actives largely listed as activators | hit rate 0.2% among 410,000 | AID 624263, 2012; active = well fitted activation curve with a large enough effect; inconclusive = small, poorly fitted or top-dose-only effect; inactive = flat fitted curve, though single readings scatter; cell line not stated here;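 note: % of control where 0% means no effect; nearly all actives have a fitted effect of over 65% in size; a mitochondrial uncoupler was the plate control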
#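 Compound titrations (5 concentrations, 24 h) on a stable cell line; DMSO and CCCP controls. Endpoint: fixed-cell PINK1 immunofluorescence with mitochondrial, cell and nuclear markers, scanned by microplate cytometer.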
# * marks the source's active call; other numbers are inactive results; ? = inconclusive. Potency is the fitted concentration of half-maximal effect. Not all compounds are listed; count on the stated rates, not on these rows.
# Order of results – PINK1 expr mod, ClpP mod
COc1ccc(Cl)cc1Nc1ncnc2c1nc1n2CCCC1
  7.3%, -4.5%
CCOC(=O)c1scc(-c2ccc(C)cc2)c1S(=O)(=O)Nc1cc(Cl)ccc1OC
  1.7%, 0.1%
CCOc1ccc(/C=C/c2nc(C#N)c(NCc3ccc(OC)cc3)o2)cc1
  -0.1%, 4.4%
CCCOc1ccc(C2C(=O)N(C3CCCCC3)CC(=O)N2CCc2ccccc2)cc1OC (stereo not given)
  0.7%, 1.0%
COc1ccc(C)c2sc(N(Cc3cccnc3)C(=O)C3CCCCC3)nc12
  -0.7%, 5.8%
Cc1ccc(-n2ncc3c(NC4CCCC4)ncnc32)cc1
  1.7%, 3.9%
CC(NC(=O)c1cc(-c2ccc(Cl)cc2)on1)c1ccccc1 (stereo not given)
  -0.5%, 0.1%
O=C(CCOc1ccccc1)N(Cc1cccnc1)c1nc2c(F)cc(F)cc2s1
  1.2%, -12%
CCC(C)Nc1ncnc2c1cnn2-c1ccc(F)cc1 (stereo not given)
  1.4%, -18%
COc1ccc(Br)cc1CNCc1c(C(=O)O)c(C)n(Cc2ccccc2C)c1C
  -0.3%, -4.8%
CCOc1ccc(NC(=O)C2CCCN(c3nnc(C)c4c(C)n(-c5ccccc5)nc34)C2)cc1 (stereo not given)
  -0.8%, -23%
COCCn1c(CNC(=O)c2ccc(C)cc2)nc2cccnc21
  2.3%, -4.0%
COC(=O)c1ccc(NS(=O)(=O)c2ccc3[nH]c4c(c3c2)CCCCC4)cc1
  5.1%, -9.7%
Cc1cc(F)ccc1NC(=O)CCS(=O)(=O)c1cc2c3c(c1)CCN3C(=O)CC2
  1.0%, 1.5%
CCOC(=O)c1c(NC(=O)/C=C/c2ccc(OCC)cc2)sc(C(C)=O)c1C
  -0.9%, -5.9%
CCc1nn(CC(=O)NC2CC2)c(=O)c2cc3c(OC)cccc3n12
  1.1%, 4.1%
COc1ccc(NC(=O)CN2CCCN(Cc3ccccc3)S2(=O)=O)cc1
  -0.4%, -1.1%
CCCCc1ccc(NC(=O)c2ccc3c(c2)CCN3S(=O)(=O)c2ccccc2)cc1
  -0.3%, ?
COc1ccc(C(=O)Nc2ccc(-c3nnc4n3CCCCC4)cc2)cc1
  -0.3%, -4.4%
COC(=O)c1ccn(-c2nc(-c3ccc(Cl)cc3)cc(C(F)(F)F)n2)n1
  3.4%, ?
CCCSC1=NC2(CCN(C(=O)NC3CCCCC3)CC2)N=C1c1ccc(OC)cc1
  13%, 0.6%
Cc1cccc(C)c1-n1nnnc1-c1nc2cc(Br)ccc2[nH]c1=O
  1.8%, -14%
CC(Nc1oc(-c2ccc(COc3ccccc3)o2)nc1C#N)c1ccccc1 (stereo not given)
  3.2%, 4.4%
CCOc1ccccc1NC(=O)Cn1c(=O)n(Cc2ccccc2)c(=O)c2c(C)c(C(=O)N(C)C)sc21
  0.0%, 0.3%
Cc1ccccc1NC(=O)Cn1cc(C(=O)c2cccs2)c2ccccc21
  2.1%, -3.2%
COc1cccc(CN2CCc3nc(N4CCN(C)CC4)ncc3C2)c1
  0.1%, -3.0%
Cn1nnnc1SCCCNCc1ccc(-c2ccc(Br)cc2)o1
  2.2%, -4.7%
Cc1ccc(Cl)cc1NC(=O)Cn1c(=O)n(Cc2ccccc2)c(=O)c2oc3ccccc3c21
  -1.7%, -16%
Cc1cc(=O)[nH]c2nnc(SCc3ccc(Cl)cc3Cl)n12
  7.9%, -4.5%
CCOC(=O)[C@]12CCCC=C1N(Cc1ccco1)C(=O)[C@H](CC(=O)NCCCOC)C2
  0.5%, -9.7%
CCN(CC)c1ccc(NC(=O)CCS(=O)(=O)c2ccc3c(c2)oc(=O)n3C)c(C)c1
  1.5%, -0.3%
COc1cc(NC(=O)c2oc3c(c2C)-c2nn(Cc4cccc(Cl)c4)cc2CC3)cc(OC)c1
  2.6%, 20µM*
COc1cccc(N2CCN(c3ncnc4c3nc3n4CCCCC3)CC2)c1
  2.2%, -2.6%
COc1cccc(N2CCN(C(=O)Cn3ncc4c5ccccc5n(C)c4c3=O)CC2)c1
  0.6%, -9.2%
CCCCCNc1nc2c(-c3ccccc3)nnn2c2ccccc12
  0.1%, -5.1%
COc1ccc(CCNC(=O)CCCn2c(=O)c3ccccc3n(Cc3ccc(C)cc3)c2=O)cc1OC
  2.0%, -0.7%
COc1cc(C(=O)N2CCN(c3ccc(Nc4ccc(C)cc4)nn3)CC2)cc(OC)c1OC
  -0.7%, 0.0%
CCOC(=O)N1CCc2c(sc(NCc3cccc(F)c3)c2C(=O)Nc2ccc(OCC)cc2)C1
  1.0%, -4.6%
Cn1nnnc1SCCCNCc1cccc(OCc2ccc(Cl)cc2)c1
  0.1%, 0.7%
CCOc1cc(C(=O)Nc2ccc(-c3nc4ccccc4s3)cc2Cl)cc(OCC)c1OCC
  -1.0%, 4.6%
CCCOc1cccc(C(=O)Nc2ccc(-c3cc4ccccc4oc3=O)c(C)c2)c1
  -0.6%, 4.0%
Cc1ccc(OC(C)C(=O)N2CCN(CCc3ccccn3)CC2)cc1C (stereo not given)
  0.3%, 2.0%
CC1CCN(C(=O)Cn2c(=O)n(-c3ccc(Cl)cc3)c(=O)c3c4c(sc32)CCC4)CC1
  0.6%, -0.6%
COc1cccc(NC(=O)Cn2c(=O)n(Cc3ccc4c(c3)OCO4)c(=O)c3oc4ccccc4c32)c1
  2.0%, ?
CCCCOc1ccc(C2=NC(c3ccccc3)=Nc3ccc(OC)cc3N2)cc1
  2.5%, 3.4%
Cc1ccc(/C=C/c2onc(C)c2S(=O)(=O)N2CCC(C(=O)Nc3ccccc3C(F)(F)F)CC2)cc1
  0.0%, -6.4%
CC(C)CNS(=O)(=O)c1ccc(N2CCCCS2(=O)=O)cc1
  0.4%, 1.3%
COc1ccc(NC(=O)c2c(NCc3ccc(C)o3)sc3c2CCC(C)C3)c(OC)c1 (stereo not given)
  11%, -1.4%
CN(C)c1ccc(NC(=O)Cn2nnc3sc4c(c3c2=O)CCC(C(C)(C)C)C4)cc1 (stereo not given)
  2.2%, 1.3%
CSc1ncc(C(=O)NCc2ccccc2)c(-c2ccccc2)n1
  0.1%, -2.3%

# Looked up one by one from the list above, six records:
# Order of results – PINK1 expr mod, ClpP mod
CCCOc1cccc(C(=O)Nc2ccc(-c3cc4ccccc4oc3=O)c(C)c2)c1
  -0.6%, 4.0%
CN(C)c1ccc(NC(=O)Cn2nnc3sc4c(c3c2=O)CCC(C(C)(C)C)C4)cc1 (stereo not given)
  2.2%, 1.3%
CSc1ncc(C(=O)NCc2ccccc2)c(-c2ccccc2)n1
  0.1%, -2.3%
COc1ccc(NC(=O)c2c(NCc3ccc(C)o3)sc3c2CCC(C)C3)c(OC)c1 (stereo not given)
  11%, -1.4%
CCCCOc1ccc(C2=NC(c3ccccc3)=Nc3ccc(OC)cc3N2)cc1
  2.5%, 3.4%
Cc1ccc(/C=C/c2onc(C)c2S(=O)(=O)N2CCC(C(=O)Nc3ccccc3C(F)(F)F)CC2)cc1
  0.0%, -6.4%

# (cont.)
# Order of results – PINK1 expr mod, ClpP mod
CCCCN(CCCNC(=O)c1cc(Nc2ccc(OC)c(OC)c2)nc2ccccc12)Cc1ccccc1
  4.1%, 0.1%
CCCCn1c(CNC(=O)c2ccc(OC)cc2)nnc1SCC(=O)Nc1ccc(OC)cc1
  1.0%, 0.3%
Cc1ccc(S(=O)(=O)c2nc(S(=O)(=O)c3ccccc3)sc2NCCCOC(C)C)cc1
  -0.6%, -27%
Cc1ccc(Cn2c(=O)n(Cc3ccco3)c(=O)c3oc4ccccc4c32)cc1
  -0.5%, 2.0%
O=C(NCc1ccncc1)[C@@H]1CCCN1C(=O)[C@H]1CCCN1C(=O)c1cccc(Cl)c1
  -0.7%, -1.1%
CCc1ccc(-n2nc(C)c3c(C)cc(=O)n(CC(=O)N4CCCc5ccccc54)c32)cc1
  0.1%, -0.3%
CCc1ccc(-n2nc(C)c3c(C(=O)Nc4ccc(Cl)cc4)cc(C)nc32)cc1
  -0.3%, 1.1%
O=S(=O)(c1nccs1)N1CCN(c2nc(-c3cccs3)nc3ccccc23)CC1
  -0.7%, -23%
COC(=O)c1cc2oc(C)cc2n1CC(=O)Nc1ccc(C(C)C)cc1
  2.2%, -16%
COc1ccc(OC)c(CCNC(=O)c2cc3c(-c4ccccc4F)nn(C)c3s2)c1
  4.8%, ?
CNS(=O)(=O)c1cn(CC(=O)Nc2ccc(C)c(N(C)C)c2)cc1S(=O)(=O)NC
  1.7%, -0.8%
CCOC(=O)c1cc(-c2ccccc2)n(CCC(=O)Nc2ccccc2CC)c1C
  7.7%, -1.5%
COc1ccccc1N1CCN(S(=O)(=O)c2c(C)sc3ncn(CC(=O)Nc4ccc(C(C)C)cc4)c(=O)c23)CC1
  1.3%, 1.2%
COc1ccc(-c2nc3sc(CCNC(=O)C(=O)Nc4ccc(C)c(C)c4)c(C)n3n2)cc1
  0.9%, -1.8%
Cc1cccc(N2CCN(C(=O)c3nn(C)c4c3CSc3ccccc3-4)CC2C)c1 (stereo not given)
  -0.4%, 1.0%
CCCn1c2ccccc2c2cnn(CC(=O)Nc3cc(C)c(Cl)cc3OC)c(=O)c21
  -7.0%, -15%
O=C(c1ccc2c(c1)N(Cc1cccc(F)c1)C(=O)c1ccccc1S2)N1CCCC1
  2.2%, 3.9%
COc1ccc(CCNC(=O)c2ccc3c(c2)nc(C)n3-c2ccc(Br)cc2)cc1OC
  0.0%, -1.8%
CN(CC(=O)Nc1ccc(F)cc1F)S(=O)(=O)c1cccc2nsnc12
  1.1%, 0.4%
CCCCCCCCN1C(=O)[C@H](CC(=O)NCC2CCCCC2)C[C@@]2(C(=O)OC)CCCCC=C12
  ?, 1.7%
CN1CCc2nc3sc(C(=O)Nc4ccccc4OC(F)(F)F)c(N)c3cc2C1
  11%, -14%
COc1ccc(Cl)cc1NC(=O)CCCS(=O)(=O)c1nc(-c2ccc(OC)c(OC)c2)cc(C(F)(F)F)n1
  -1.6%, 5.2%
COC(=O)C(NC(=O)CCc1c(C)nc2c(-c3ccccc3)c(C)nn2c1C)C(C)C (stereo not given)
  2.9%, -4.4%
COc1cccc2c1C(=O)/C(=C\c1ccc(N(C)C)cc1)C2
  9.1%, 0.1%
COc1cccc(CNC(=O)c2ccc3c(c2)N(Cc2ccc(C(F)(F)F)cc2)C(=O)c2ccccc2S3)c1OC
  0.7%, -8.4%
O=C(Nc1nnc(N2CCCC2)s1)Nc1cc(F)ccc1F
  -1.4%, 1.1%
O=C(NCc1ccccc1)c1ccc(CNS(=O)(=O)c2ccc(Br)cc2)cc1
  11%, -1.4%
CCCc1nnc(NC(=O)C(CC)Sc2nnc3c4ccccc4n(C)c3n2)s1 (stereo not given)
  -0.4%, 1.4%
COc1ccc(Cl)cc1NC(=O)CSC1=Nc2ccccc2C2=NC(CC(=O)NCc3cccs3)C(=O)N12 (stereo not given)
  -1.2%, -7.1%
CSc1ncc(Cl)c(C(=O)Nc2c(C(=O)Nc3cccc(C)c3)oc3ccccc23)n1
  2.1%, 0.2%
Cc1ccc(C)c(NC(=O)c2cc(S(=O)(=O)NCCc3ccccc3)ccc2F)c1
  2.8%, -2.2%
Cc1ccc(C)c(N2CCN(C(=O)c3cnc4c(-c5ccccc5)c(C)nn4c3C)CC2)c1
  0.4%, -1.6%
CCOC(=O)c1c(N)n(-c2ccc(Cl)c(Cl)c2)c2nc3ccccc3nc12
  -5.2%, ?
CCN(CC)S(=O)(=O)c1nnc(NC(=O)c2ccc(C)cc2)s1
  -1.0%, -4.2%
CC(=O)Nc1c(C)nn(-c2ccccc2)c1N1CCC(C(=O)NCc2ccccc2Cl)CC1
  0.8%, -3.3%
CCN(CC)S(=O)(=O)c1ccc(NC(=O)c2c(C)oc3ncnc(N4CCCCC4)c23)cc1
  3.2%, 2.3%
CNC(=O)c1c(NC(=O)Cc2coc3ccc(OC)cc23)sc2c1CCCC2
  0.1%, -2.9%
Cc1cc(C)cc(-n2c(SCC(=O)N3CCOCC3)nc3c([nH]c4ccccc43)c2=O)c1
  3.9%, -10%
Cc1ccc(Nc2nnc(-c3cc4c(ccc5ccccc54)oc3=O)s2)cc1
  23%, ?
COc1cccc(NC(=O)Cn2c(=O)n(-c3ccc(Cl)cc3)c(=O)c3oc4ccccc4c32)c1
  4.5%, ?
Cc1cccc(NC(=O)CSc2nc(=O)n(Cc3cccnc3)c3c2CCC3)c1
  0.0%, -1.8%
O=C(NCc1cccc(F)c1)c1ccc(CS(=O)c2ccccc2Cl)o1 (stereo not given)
  1.8%, 1.2%
COc1cc(OC)c(NC(=O)c2c3c(nc4ccccc24)C(=O)N(C2CCCCC2)C3)cc1Cl
  1.3%, 1.3%
CCOC(=O)c1c(C)[nH]c(C)c1S(=O)(=O)N1CCCC(C(=O)Nc2cc(C)ccc2C)C1 (stereo not given)
  3.0%, 0.8%
Cc1ccc(Nc2sc(C(=O)c3ccccc3)c(N)c2C(=O)NC(C)C)cc1
  0.9%, 3.2%
CCOC(=O)c1c(NC(C)=O)c2c3c(sc2n1Cc1ccc(Cl)cc1)CCCC3
  -0.7%, -0.3%

# Screening data (PubChem BioAssay)
